# Compound activity deposited in PubChem by several laboratories.
# RGS16-Gao HTS: RGS16-Galphao interaction regulator (human) | O15492+P09471 | bead-based flow cytometry RGS16-Galphao binding, fluorescence; actives lie on both sides | binding response (% of control), % at 10 µM | actives 0.38% (n = 220,000) | AID 1441;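 active = below 25% or above 175%, edge rows of some plates excepted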;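 note: Galphao activated by GDP with aluminum fluoride before binding; 100% = wells without compound and 0% = beads without RGS; some results beyond the cut were filed as inactive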
# Target sequence (O15492 whole entry, looked up): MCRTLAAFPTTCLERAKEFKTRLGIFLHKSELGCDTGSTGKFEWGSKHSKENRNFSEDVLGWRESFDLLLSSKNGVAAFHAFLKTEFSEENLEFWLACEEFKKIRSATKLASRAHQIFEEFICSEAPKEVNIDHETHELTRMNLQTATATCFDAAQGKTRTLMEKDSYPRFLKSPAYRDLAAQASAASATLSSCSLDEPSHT
# Target sequence (P09471 whole entry, looked up): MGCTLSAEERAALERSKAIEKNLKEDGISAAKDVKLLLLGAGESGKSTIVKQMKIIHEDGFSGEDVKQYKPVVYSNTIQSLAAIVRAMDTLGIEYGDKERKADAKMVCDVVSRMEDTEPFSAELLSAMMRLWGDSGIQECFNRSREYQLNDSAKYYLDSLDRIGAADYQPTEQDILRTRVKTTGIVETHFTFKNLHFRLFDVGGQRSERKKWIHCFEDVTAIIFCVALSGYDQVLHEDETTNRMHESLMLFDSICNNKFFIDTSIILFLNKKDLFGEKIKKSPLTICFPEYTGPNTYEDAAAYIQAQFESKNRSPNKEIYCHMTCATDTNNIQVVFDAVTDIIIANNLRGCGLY
# GALR2 agonist: activates the human galanin receptor 2; O43603; actives 0.48% (n = 140,000); AID 803; activation, %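 (tested at 5 µM)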; GALR2-expressing cells, agonist activation read-out;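 active = above mean plus 3 SD of all compounds, about 5% in these data, not always enough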;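 note: 0% = vehicle buffer wells and 100% = reference agonist at full effect; tested in CHO reporter cells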
# Target sequence (O43603 whole entry, looked up): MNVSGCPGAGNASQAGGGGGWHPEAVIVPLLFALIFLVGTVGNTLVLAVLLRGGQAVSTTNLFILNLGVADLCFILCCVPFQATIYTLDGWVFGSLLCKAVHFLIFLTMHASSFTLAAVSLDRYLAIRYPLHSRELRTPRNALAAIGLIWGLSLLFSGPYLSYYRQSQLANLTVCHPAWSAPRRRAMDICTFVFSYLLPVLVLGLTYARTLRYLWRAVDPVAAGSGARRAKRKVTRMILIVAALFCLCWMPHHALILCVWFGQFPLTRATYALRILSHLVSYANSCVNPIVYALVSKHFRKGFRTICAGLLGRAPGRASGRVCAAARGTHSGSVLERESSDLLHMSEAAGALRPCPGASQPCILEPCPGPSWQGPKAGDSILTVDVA
# HSV replic up: increases HSV replication in cells. HSV replication augmentation in cells, fold increase. maximum fold increase. actives 0.005% (n = 220,000);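 active = peak rise of 1.5-fold or more in the series; tested in PC3 cells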;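 note: first round at 10 µM; read as green reporter fluorescence; hits show the peak of a series up to 25 µM; 1 = signal of infected wells without compound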
# PKD1 inh: blocks activity of human protein kinase D1 | Q15139 | PKD1 kinase fluorescence polarization assay | AID 797 | actives 0.056% (n = 200,000) | inhibition, %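 (about 10 µM by stock and volumes)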;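 active = inhibition of 50% or more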;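 note: controls were vehicle for no effect and a reference inhibitor for full effect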
# Insulin prom inh: TRM-6 insulin promoter activity inhibition; actives 0.9% (n = 130,000); inhibition, % at 2 µM; TRM-6 cells (human fetal islet line), insulin promoter-eGFP reporter, imaging; reporter expression induced with tamoxifen; AID 1273;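 active = inhibition above the mean plus 3 SD, with well images judged a real hit on visual review, cut at about 60% in these data, passing the limit was not always enough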
# Insulin prom inh cell count: recorded beside Insulin prom inh, whose call it bears; normalized cell count, %; measured here: cell count, toxicity; reference of the scale not given here;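 cells exposed to compound for 48 h; stained nuclei by imaging scaled within each plate; lower means fewer cells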
# HSV replic up primary fold: also measured in HSV replic up; calls as there; fold increase; compound at 10 µM; measured here: primary screen fold increase 10 uM; tested in PC3 cells;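 GFP signal in the first replicate; 1 = infected wells without compound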
# Active calls of the source: *; i = inactive; . = not tested or not shown.
SMILES,RGS16-Gao HTS,GALR2 agonist,HSV replic up,HSV replic up primary fold,PKD1 inh,Insulin prom inh,Insulin prom inh cell count
COc1ccc(Cl)cc1N(C)C(=O)CCc1nc(-c2ccc(C)cc2)no1,104,-3.9,i,0.87,-5,-2,98
CCSc1nnc(NC(=O)CSc2nnc(Cc3cccn3C)n2-c2ccc(F)cc2)s1,103,0.3,.,.,-3,.,.
COc1ccc(-n2c(O)c(C=Nc3ccccc3)c3ccccc3c2=O)cc1,94,.,i,0.96,9,-6,100
CN(C)c1cccc(C(=O)N2CCCC(C(=O)c3cc(F)ccc3F)C2)c1 (stereo unspecified),109,.,i,1.1,0,.,.
Cc1ccc(-n2nnnc2Sc2nc([N+](=O)[O-])nn2C)c(C)c1,.,-1.9,i,0.97,1,-10,108
O=C(COC(=O)COc1cccc2ccccc12)NCC(F)(F)F,100,.,i,0.96,-4,42,115
Cc1ccc(O)c(NC(=S)NC(=O)c2ccc(-c3ccc(Cl)cc3)o2)c1,.,1.9,i,1,-15,2,39
O=C(CN(CC1CCCO1)C(=O)CCC(=O)Nc1ccccn1)NCc1ccccc1 (stereo unspecified),109,-3.3,i,1,-9,25,125
CCOc1ccc(NC(=S)N(CCN2CCOCC2)Cc2cc3cc4c(cc3[nH]c2=O)OCCO4)cc1,103,.,i,0.95,-8,.,.
C=CCN(CC=C)CC(O)CN(c1cc([N+](=O)[O-])ccc1OC)S(=O)(=O)c1ccccc1 (stereo unspecified),107,-0.3,i,0.95,-10,-10,97
COc1ccc(C(=O)N/C(=C\c2cc(OC)c(OC)cc2[N+](=O)[O-])C(=O)NCCO)cc1,115,.,i,1,-4,.,.
Cc1noc(C)c1S(=O)(=O)N1CCCC(C(=O)Nc2cccnc2)C1 (stereo unspecified),97,-3.7,i,1,-1,.,.
O=C(O/N=C1\CCCc2ccccc21)C1CC1,106,.,i,1.1,-4,27,96
O=[N+]([O-])c1cc2c(cc1/C=N/n1cnnc1)OCO2,87,.,i,0.9,2,.,.
O=C(COC(=O)/C=C/c1ccc(S(=O)(=O)N2CCOCC2)cc1)NCc1ccc(Cl)cc1,102,.,i,0.98,5,-9,99
CC(=O)N1CCc2cc(Br)cc(S(=O)(=O)NCCN3CCCCC3C)c21 (stereo unspecified),110,0.2,i,1,1,-29,61
CCCCN(C(=O)/C=C/c1ccco1)c1c(N)n(CC(C)C)c(=O)[nH]c1=O,102,.,i,1.1,-2,-36,122
COc1ccc(-c2noc(CN(C(=O)c3ccc(OC(C)=O)cc3)C(C)C)n2)cc1OC,78,-0.4,i,0.85,-4,-35,61
Nc1nc(Nc2ccccc2)n[nH]1,97,.,i,1,.,.,.
Cc1cccc(NC(=O)C2CCN(S(=O)(=O)c3cccc4cccnc34)CC2)c1,135,.,i,1,-3,.,.
CCCN(CC1COc2ccccc2O1)C(=S)Nc1ccc(C)cc1 (stereo unspecified),107,-1.1,i,1.1,6,.,.
Cc1ccc(CN2CCN(Cc3cn[nH]c3-c3cccc(F)c3)CC2CCO)o1 (stereo unspecified),101,.,i,1.1,12,.,.
CC(C)(C)c1ccc(-c2nnc3sc(-c4ccncc4)nn23)cc1,101,-1.7,i,1,1,27,104
O=C(Nc1ccccc1C(F)(F)F)c1cc(S(=O)(=O)N2CCOCC2)ccc1F,111,-2.9,i,1.1,3,6,112
CC(=O)OCC(=O)[C@H]1CC[C@H]2[C@@H]3CCC4=CC(=O)CC[C@]4(C)[C@H]3CC[C@]12C,101,0.8,i,1,-4,-10,133
COCCNC(=O)CSC1=N/C(=C/c2ccc(Cl)c(Cl)c2)C(=O)N1c1ccccc1F,83,-1.4,i,1,-4,18,103
Cc1ccc(S(=O)(=O)CCC(=O)NCc2ccc(Cl)cc2)cc1,101,-1.2,i,0.96,-8,9,105
CCCCc1ccc(-c2ccc(Br)cc2O)nc1,100,-0.7,i,0.8,1,10,51
O=C(Cn1nnc2ccccc21)c1cccc([N+](=O)[O-])c1,109,-0.7,.,.,-4,-8,164
COc1ccc(CCCC(=O)Nc2ccccc2F)cc1,91,-0.6,i,1,-2,-7,61
CCCC(=O)n1nc(-c2cccnc2)nc1NCc1cccs1,104,.,i,1.2,6,.,.
CCOc1ccc(CN2CCN(Cc3cccn3-c3ncccn3)CC2CCO)cc1 (stereo unspecified),91,.,i,1.1,-7,.,.
CC1CC(C)CN(c2nc3c(c(=O)[nH]c(=O)n3C)n2CCCSc2nc3ccccc3s2)C1 (stereo unspecified),.,0.2,.,.,-11,-86,73
O=C(C1CCC(C(=O)N2CCCCC2)CC1)N1CCCCC1 (stereo unspecified),103,-0.4,i,0.91,-3,-22,95
N#Cc1nc(-c2ccc(F)cc2)oc1NCc1cccc2c1OCO2,100,-1.6,i,0.88,-4,.,.
O=C(Nc1ccccc1)c1cccc(N2CCCC2=O)c1,176,-0.8,i,0.88,-8,-28,154
CCN1CCCC1CN(Cc1cc2cc(C)ccc2[nH]c1=O)C(=O)Nc1ccccc1OC (stereo unspecified),116,-2.1,i,1.1,6,19,86
NC(=O)c1ccccc1NS(=O)(=O)c1ccc(F)cc1,100,.,i,0.97,-2,20,95
Cc1cccnc1NC1CCCCC1,190,.,i,1.1,8,79*,89*
Cn1c(=O)n(C)c2cc(S(=O)(=O)N3CCOCC3)ccc21,100,-1.6,i,1.1,-2,-59,117
CCOC(=O)c1c(C)c2c(n1C)CCC/C2=N\O,103,-1.2,i,0.93,6,12,113
Cc1cc(C)c(C(=O)Nc2ccc(Br)c(C(F)(F)F)c2)c(C)c1,99,-2.4,i,1.1,-13,35,58
O=C(c1ccco1)N1CCN(C(=O)C2CC(c3ccc(Cl)cc3)=NO2)CC1 (stereo unspecified),110,-1.9,i,0.99,4,-214,52
c1ccc(Cn2c(Nn3cnnc3)nc3ccccc32)cc1,104,-1.1,i,0.97,-3,-51,90
N#CC(C(=O)OC1CCCCC1)c1nc2ccccc2nc1N1CCOCC1 (stereo unspecified),106,-0.3,i,1.2,-7,-38,141
CC(C)C(=O)NC(=S)/C=C1/N(C)c2ccccc2C1(C)C,110,.,i,1.1,2,-85,128
COc1ccc(N2CCN(c3ncnc4c3nnn4Cc3ccccc3Cl)CC2)cc1,119,-1.2,i,1.1,-4,8,158
COc1cccc(-c2nnc(SCC(=O)N3CCOCC3)o2)c1,106,-0.4,i,0.81,-6,29,132
CC1(C(=O)O)C=CC2(CCCCC2)N1C(=O)c1ccccc1 (stereo unspecified),96,-1.3,i,0.85,-13,-5,102
CCCOc1ccc(/C(O)=C2/C(=O)C(=O)N(CCCn3ccnc3)C2c2cccnc2)cc1 (stereo unspecified),99,.,i,0.89,.,.,.
C=CCNC(=O)C1CC(=O)N(c2ccc(OCC(=O)NCc3ccccc3)cc2)C1 (stereo unspecified),98,-2.1,i,1.1,10,24,78
CN(N)C(=S)Nc1ccc(F)cc1,103,.,i,0.89,-6,.,.
CCCCCCCOC(=O)c1nc(Cl)c(Cl)c(N)c1Cl,96,0.1,i,0.9,4,9,116
Cc1ccc(NC(=O)c2cc(N3C(=O)CCC3=O)ccc2N2CCCCC2)cc1,79,.,i,0.91,-1,30,59
COc1cc(Nc2cc(C)nc3ncnn23)cc(OC)c1,107,-2.0,i,0.87,2,.,.
CCOC(=O)C1CCN(C(=O)Nc2cc(Cl)cc(Cl)c2)CC1,104,.,i,0.95,.,.,.
O=C(NC(=O)c1cnccc1C(F)(F)F)Nc1ccccc1,87,.,i,1.2,.,.,.
Cc1cc(C)n(-c2ccc(Cl)c(C(=O)O)c2)n1,68,.,i,0.98,7,-24,140
O=C(Nc1ccc(O)cc1)/C(=C/c1ccco1)NC(=O)c1ccccc1,103,.,i,0.88,.,.,.
Cn1c(=O)c2c(nc(SCC(=O)N(C3CCCCC3)C3CCCCC3)n2C)n(C)c1=O,.,-3.5,.,.,-1,50,105

# Additional results
SMILES,RGS16-Gao HTS,GALR2 agonist,HSV replic up,HSV replic up primary fold,PKD1 inh,Insulin prom inh,Insulin prom inh cell count
COc1cccc(OC)c1C(=O)N1CCOCC1,100,-1.5,i,0.92,4,43,80
CCOc1ccc(C(=O)Nc2ccc(N3CCN(C)CC3)cc2)cc1[N+](=O)[O-],102,.,i,0.97,5,.,.
O/N=C/c1nc2cc(Cl)ccc2o1,105,.,i,1.1,-3,.,.
O=C(O)c1cc(-c2ccc(O)cc2)on1,65,.,i,1,-3,.,.
Cc1ccc(NCc2nnc(SCC(=O)N3CCc4ccccc43)n2C)cc1,102,-2.1,i,0.83,-1,-3,96
COc1ccc(OC)c(C2=NOC(C(=O)Nc3ccccc3SC)C2)c1 (stereo unspecified),96,-1.2,i,1.1,-2,20,56
COc1ccc(CNc2nc(NCc3ccc(OC)cc3)n(C(=O)c3ccccc3[N+](=O)[O-])n2)cc1,103,-2.0,i,1,7,.,.
CCN(c1ccccc1)S(=O)(=O)c1ccc2[nH]c(=O)[nH]c2c1,99,.,i,1,-1,.,.
O=C(CCl)c1ccc2[nH]c(=O)oc2c1,91,.,i,1.2,.,.,.
Cc1ccc2c(c1)cc1c(=O)[nH]ncn12,98,-3.1,.,.,12,-7,142
CCOc1ccc(NC2=NC(C(=O)NCc3ccccc3)CC(=O)N2)cc1 (stereo unspecified),99,-1.4,i,0.96,13,.,.
CC(C)C(OC(=O)c1cccs1)C(=O)NCc1ccc2c(c1)OCO2 (stereo unspecified),115,.,i,1.1,-2,-27,90
Cc1cccc(NS(=O)(=O)c2c(C)n[nH]c2C)c1,101,0.0,i,0.83,-8,-25,70
Cc1ccc(C)c(S(=O)(=O)N2CCCOC2CNC(=O)C(=O)NCCCn2ccnc2)c1 (stereo unspecified),99,-1.1,i,0.95,-10,10,119
Cc1ccsc1C(=O)N/N=C/c1ccc([N+](=O)[O-])cc1,117,0.4,i,0.98,0,.,.
CCc1ccccc1NC1Nc2cc(C)nn2S1 (stereo unspecified),99,.,i,0.94,4,6,97
O=C(N/N=C/c1cc(Br)c(Br)o1)C(O)c1ccccc1 (stereo unspecified),97,0.1,i,0.85,11,-48,145
S=C(NC1CCCCC1)N1CCc2ccccc2C1,103,-0.3,i,0.9,-11,7,91

# 15 structures already listed, arranged by number of heavy atoms, lowest first.
SMILES,RGS16-Gao HTS,GALR2 agonist,HSV replic up,HSV replic up primary fold,PKD1 inh,Insulin prom inh,Insulin prom inh cell count
O/N=C/c1nc2cc(Cl)ccc2o1,105,.,i,1.1,-3,.,.
O=C(CCl)c1ccc2[nH]c(=O)oc2c1,91,.,i,1.2,.,.,.
O=C(O)c1cc(-c2ccc(O)cc2)on1,65,.,i,1,-3,.,.
Cc1cc(C)n(-c2ccc(Cl)c(C(=O)O)c2)n1,68,.,i,0.98,7,-24,140
COc1cccc(OC)c1C(=O)N1CCOCC1,100,-1.5,i,0.92,4,43,80
S=C(NC1CCCCC1)N1CCc2ccccc2C1,103,-0.3,i,0.9,-11,7,91
O=C(N/N=C/c1cc(Br)c(Br)o1)C(O)c1ccccc1 (stereo unspecified),97,0.1,i,0.85,11,-48,145
O=C(NC(=O)c1cnccc1C(F)(F)F)Nc1ccccc1,87,.,i,1.2,.,.,.
CC(C)C(OC(=O)c1cccs1)C(=O)NCc1ccc2c(c1)OCO2 (stereo unspecified),115,.,i,1.1,-2,-27,90
COc1ccc(OC)c(C2=NOC(C(=O)Nc3ccccc3SC)C2)c1 (stereo unspecified),96,-1.2,i,1.1,-2,20,56
CCOc1ccc(NC2=NC(C(=O)NCc3ccccc3)CC(=O)N2)cc1 (stereo unspecified),99,-1.4,i,0.96,13,.,.
CCOc1ccc(C(=O)Nc2ccc(N3CCN(C)CC3)cc2)cc1[N+](=O)[O-],102,.,i,0.97,5,.,.
Cn1c(=O)c2c(nc(SCC(=O)N(C3CCCCC3)C3CCCCC3)n2C)n(C)c1=O,.,-3.5,.,.,-1,50,105
Cc1ccc(C)c(S(=O)(=O)N2CCCOC2CNC(=O)C(=O)NCCCn2ccnc2)c1 (stereo unspecified),99,-1.1,i,0.95,-10,10,119
COc1ccc(CNc2nc(NCc3ccc(OC)cc3)n(C(=O)c3ccccc3[N+](=O)[O-])n2)cc1,103,-2.0,i,1,7,.,.

# Some of the entries so far, tab-delimited:
SMILES	RGS16-Gao HTS	GALR2 agonist	HSV replic up	HSV replic up primary fold	PKD1 inh	Insulin prom inh	Insulin prom inh cell count
Cc1ccc(NCc2nnc(SCC(=O)N3CCc4ccccc43)n2C)cc1	102	-2.1	i	0.83	-1	-3	96
O=C(N/N=C/c1cc(Br)c(Br)o1)C(O)c1ccccc1 (stereo unspecified)	97	0.1	i	0.85	11	-48	145
S=C(NC1CCCCC1)N1CCc2ccccc2C1	103	-0.3	i	0.9	-11	7	91
